A647 fluor = qHTS Assay for Spectroscopic Profiling in A647 Spectral Region. Compound fluorescence, A647 channel (570/671 nm), Tris buffer. max dye-equivalent concentration, M. 59,000 tested, under 10 active; active means above 1 µM dye equivalent; inconclusive means 0.1 to 1 µM; inactive means 0.1 µM or less;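 also: values scaled relative to a standard on each plate; highest value over a series up to 38 µM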
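Compounds pinned into 100 mM Tris pH 8.0, 15 min at room temperature, then read with 570 nm excitation/671 nm emission filters. Fluorescence normalized to an on-plate six-point Alexa 647 standard curve, giving dye-equivalent concentration per compound concentration.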
TSHR agonist = qHTS Assay for Agonists of the Thyroid Stimulating Hormone Receptor | Potency, µM (doses to about 57.1 µM), inactives show top-dose activation, actives largely listed as activators | Thyrotropin receptor (Homo sapiens), P16473 | AID 926, 2007 | HEK293-CNG-TSHR cells (CNG channel as cAMP sensor), membrane potential dye, cAMP | 73,000 compounds, 0.48% hits; active = well fitted activation curve of enough size with the parental cells flat; inconclusive = any curve in the parental cells; inactive = parental cells flat and receptor cells flat or falling; also: potency is read from the fitted curve at half-maximal effect; % of control where 0% means no effect; weak receptor curves with flat parental cells got no call and are not listed
Target sequence (P16473 whole entry, looked up): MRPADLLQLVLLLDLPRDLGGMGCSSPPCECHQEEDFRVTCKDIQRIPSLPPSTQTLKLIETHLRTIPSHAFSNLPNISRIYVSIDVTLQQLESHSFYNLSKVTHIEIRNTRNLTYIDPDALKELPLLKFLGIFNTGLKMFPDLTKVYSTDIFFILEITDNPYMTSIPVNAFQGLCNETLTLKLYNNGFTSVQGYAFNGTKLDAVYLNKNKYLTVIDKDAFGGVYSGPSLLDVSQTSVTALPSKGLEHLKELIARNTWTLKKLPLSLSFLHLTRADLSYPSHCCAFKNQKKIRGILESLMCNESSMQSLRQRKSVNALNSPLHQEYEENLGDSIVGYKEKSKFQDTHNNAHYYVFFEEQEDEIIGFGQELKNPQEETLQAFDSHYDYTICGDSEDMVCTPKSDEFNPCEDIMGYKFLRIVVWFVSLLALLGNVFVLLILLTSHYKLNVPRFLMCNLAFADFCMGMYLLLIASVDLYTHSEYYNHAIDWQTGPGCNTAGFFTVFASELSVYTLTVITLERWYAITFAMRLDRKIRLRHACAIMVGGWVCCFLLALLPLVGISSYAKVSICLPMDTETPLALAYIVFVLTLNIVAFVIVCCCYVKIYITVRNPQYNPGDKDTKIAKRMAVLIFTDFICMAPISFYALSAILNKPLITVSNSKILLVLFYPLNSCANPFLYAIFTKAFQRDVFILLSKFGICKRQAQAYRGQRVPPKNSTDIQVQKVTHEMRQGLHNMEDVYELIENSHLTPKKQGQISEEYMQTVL
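cAMP rise detected as CNG-channel membrane depolarization by fluorescent dye (emission 590 nm), 30 min after compound, following 60 min dye loading containing 100 uM RO 20-1724 at room temperature. Cells: TSHR/CNG HEK 293, with parental CNG HEK 293 as control.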
AID923 = qHTS Assay for Allosteric/Competitive Inhibitors of Caspase-1: Spectroscopic Profiling in AFC Spectral Region | Potency, µM (highest dose often 57.5 µM), for the others: top-dose fluorescence increase, hits mostly activators | compound fluorescence, AFC spectral region (405/520 nm); almost no hit is shown here | 75,000 compounds, 1.1% hits; active = well fitted activation curve with a large enough effect; inconclusive = small, poorly fitted or top-dose-only effect;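 also: potency is read from the fitted curve at half-maximal effect; 0% is about no effect; scaled to a free AFC standard on each plate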
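Compound autofluorescence profiled at 405 nm ex/520 nm em during kinetic caspase 1 run (50 nM enzyme, 5 uM Ac-WEHD-AFC, HEPES pH 7.5, 10 mM DTT). Titration up to 57 uM; baseline from regression intercept, normalized to AFC standard curve.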
A488 autofl = qHTS Assay for Spectroscopic Profiling in A488 Spectral Region; compound autofluorescence, A488 spectral region, dye equivalency; hits give high values; max dye equivalency, M; 59,000 compounds, 0.1% hits; AID 591, 2007; active = above 10 nM dye equivalent; inconclusive = 1 to 10 nM; inactive = 1 nM or less; about half of its hits are not listed in these tables;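 also: highest value over a series up to 38 µM; compound alone in buffer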
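Read-out: relative fluorescence at 480/540 nm, expressed as Alexa 488 dye-equivalent concentration from a six-point A488 standard included per plate. Conditions: 100 mM Tris, pH 8.0; 15 min incubation, room temperature.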
Resorufin fluor = qHTS Assay for Spectroscopic Profiling in Resorufin Spectral Region; Compound fluorescence, resorufin region 547/598 nm, buffer; hits give high values; max dye-equivalent concentration, M; 59,000 compounds, 0.04% hits; active = above 10 nM dye equivalent; inconclusive = 1 to 10 nM; inactive = 1 nM or less; a few of its hits are not listed in these tables; also: highest value over a series up to 38 µM
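Intrinsic fluorescence profiled in the resorufin window (ex 547 nm, em 598 nm) after 15 min at room temperature in pH 8.0 Tris buffer (100 mM); responses normalized against a six-point resorufin standard series as dye-equivalent concentration.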
An asterisk follows results filed as active; & = joins results of further samples; ! = not active in a repeat; [ ] = another dose, or the depositor's remark. Not all compounds are listed; rates above refer to the full screens.

For C=CCn1c(O)c(C(C)=Nc2ccc(N(C)C)cc2)c(=O)[nH]c1=O the results were A647 fluor 2.7e-08, TSHR agonist 4%, AID923 1.3%, A488 autofl inactive and Resorufin fluor inactive.
Screening Cc1cc(C)cc(OP(=O)(Oc2cc(C)cc(C)c2)Oc2cc(C)cc(C)c2)c1 returned TSHR agonist inconclusive and AID923 4.0%.
For CNCC[C@H](Oc1ccc(C(F)(F)F)cc1)c1ccccc1 the results were A647 fluor 1e-08&3.1e-09&2.1e-09&4.5e-08, TSHR agonist 0.13µM*!, AID923 -5.0%, A488 autofl inactive and Resorufin fluor inactive.
`O=C(O)c1ccc2[nH]cc(CCCCN3CC=C(c4ccccc4)CC3)c2c1` gave TSHR agonist -2% and AID923 3.8%.
For COc1cccc(Oc2c(C)oc3cc(OC(=O)N(C)C)ccc3c2=O)c1 the results were A647 fluor 1.1e-08, TSHR agonist 13%, AID923 -1.8%, A488 autofl inactive and Resorufin fluor inactive.
Screening CN(C)c1ccc(N=Cc2c(O)n(CCC3=CCCCC3)c(=O)[nH]c2=O)cc1 returned A647 fluor 1e-09, TSHR agonist 10%, AID923 3.7%, A488 autofl inactive and Resorufin fluor inactive.
Screening c1ccc(Cn2ccnc2)cc1 returned A647 fluor 4.8e-08, A488 autofl inactive and Resorufin fluor inactive.
For CO[C@@H](C)[C@](O)(C(=O)OC1=CCN2CC[C@H](O)[C@H]12)C(C)C the results were A647 fluor 2e-08, TSHR agonist -2%, A488 autofl inactive and Resorufin fluor inactive.
For CN1C(=O)C(C2(C#N)CCCCC2)C(=O)N(C)C1=O the results were A647 fluor 1e-09, TSHR agonist 5%, AID923 -0.7%, A488 autofl inactive and Resorufin fluor inactive.
CC1=CC(=O)NP(=O)(Oc2ccc3ccccc3c2)N1 (centres undefined) was read as A647 fluor 1e-09, TSHR agonist -1%, AID923 -1.2%, A488 autofl inactive and Resorufin fluor inactive.
Screening CC1CN=C(Nc2ccccc2)S1 (centres undefined) returned TSHR agonist inconclusive and AID923 4.9%.
Screening COc1cc2ccccc2c2cc([N+](=O)[O-])oc12 returned A647 fluor 1e-09, TSHR agonist -16%[11.4 µM], AID923 1.4%[11.5 µM], A488 autofl inconclusive and Resorufin fluor inactive.
For CCCC1=C(C(=O)OCC)C2(C(=O)Nc3ccc(C)cc32)C(C#N)=C(N)O1 (centres undefined) the results were A647 fluor 1e-09, TSHR agonist -6%, AID923 0.0%, A488 autofl inactive and Resorufin fluor inactive.
Screening CCN(CC)C(=O)c1ccc(N2C(=O)C3CC=C(Cl)CC3C2=O)cc1 (centres undefined) returned TSHR agonist -5% and AID923 5.2%.
For COc1cc2c(cc1O)C[C@H]1c3c(cc(O)c(OC)c3-2)CCN1C the results were A647 fluor 2e-08&5.5e-08, TSHR agonist 8%, AID923 2.8%[25.7 µM], A488 autofl inactive and Resorufin fluor inactive.
For CCC(=Nc1ccccc1NC(C)=O)c1c(O)n(C)c(=O)n(C)c1=O the results were A647 fluor 5.3e-09, TSHR agonist 2%, AID923 0.3%, A488 autofl inactive and Resorufin fluor inactive.
COc1ccc(-c2nnc3sc(C4CCCCC4)nn23)cc1OC was read as A647 fluor 6.2e-09, TSHR agonist inconclusive, AID923 0.3%, A488 autofl inactive and Resorufin fluor inactive.
`Cn1c2c(c3ccccc31)CCNCC2` gave TSHR agonist -2% and AID923 -0.3%.
Screening CN1CCc2cccc(Cl)c2CC1 returned A647 fluor 2.9e-09, TSHR agonist 9%, AID923 -2.3%, A488 autofl inactive and Resorufin fluor inactive.
Screening CC(C)(OO)c1ccccc1 returned TSHR agonist 8% and AID923 1.5%.
For N#CC(Br)Br the results were TSHR agonist inconclusive and AID923 2.9%.
Screening CCCN1C2CCCC1CC(NC(C)=O)C2 (centres undefined) returned A647 fluor 1.6e-08, TSHR agonist -15%, AID923 -1.2%, A488 autofl inactive and Resorufin fluor inactive.
O=C(Nc1cccc(OC(=O)N2CCOCC2)c1)N1CCOCC1 was read as A647 fluor 1.6e-08, TSHR agonist 4%, AID923 -1.2%, A488 autofl inactive and Resorufin fluor inactive.
For Cn1nc(N)c2c1N=P(N1CCOCC1)(N1CCOCC1)N=C2c1ccccc1 the results were A647 fluor 1.7e-09, TSHR agonist 12%, AID923 0.0%, A488 autofl inactive and Resorufin fluor inactive.

Structures shown so far that contain a Cl atom:
Screening CCN(CC)C(=O)c1ccc(N2C(=O)C3CC=C(Cl)CC3C2=O)cc1 (centres undefined) returned TSHR agonist -5% and AID923 5.2%.
Screening CN1CCc2cccc(Cl)c2CC1 returned A647 fluor 2.9e-09, TSHR agonist 9%, AID923 -2.3%, A488 autofl inactive and Resorufin fluor inactive.

Continuation.
For COC(=O)C1C2c3ccccc3OC1(C)N=c1s/c(=C/c3cnn(C)c3C)c(=O)n12 (centres undefined) the results were A647 fluor 8.4e-09, TSHR agonist 19%, AID923 -1.0%, A488 autofl inactive and Resorufin fluor inactive.
`C1C[C@@H]2CN(CCCN3CCOCC3)[C@@H](C1)O2` gave A647 fluor 1.5e-08, TSHR agonist -1%[11.4 µM], AID923 4.8%[11.5 µM], A488 autofl inactive and Resorufin fluor inactive.
Screening O=[N+]([O-])c1cc([As](=O)(O)O)ccc1O returned A647 fluor 2.3e-08, TSHR agonist -7%[25.6 µM], AID923 -5.2%, A488 autofl inactive and Resorufin fluor inactive.
For CCCCn1c(O)c(C=NCCCn2ccnc2)c(=O)[nH]c1=O the results were A647 fluor 1e-09, TSHR agonist -2%, AID923 -0.3%, A488 autofl inactive and Resorufin fluor inactive.
FC(F)(F)c1ccc2c(c1)nnn2C1CCN(Cc2nnnn2Cc2ccccc2)CC1 was read as A647 fluor 3.8e-08, TSHR agonist -7%, AID923 0.8%, A488 autofl inactive and Resorufin fluor inactive.
`CCCCn1c(O)c(C(CC)=NCCCN(C)C)c(=O)[nH]c1=O` gave A647 fluor 3.4e-09, TSHR agonist 0%, AID923 -0.3%, A488 autofl inactive and Resorufin fluor inactive.
For CCCCC/C=C\C/C=C\C/C=C\C/C=C\CCCC(=O)Nc1ccc(O)cc1 the results were TSHR agonist -4% and AID923 -5.7%.
`c1ccc(-c2ccccc2)cc1` gave TSHR agonist 2% and AID923 0.5%.
For Cc1occc1C(=O)N1CCC2(CC1)OCCO2 the results were A647 fluor 1e-09, TSHR agonist -7%, AID923 0.2%, A488 autofl inactive and Resorufin fluor inactive.
For CCC(=O)Nc1c(C)nn(C(=O)CC)c1C the results were A647 fluor 1e-09, TSHR agonist inconclusive, AID923 0.4%, A488 autofl inactive and Resorufin fluor inactive.
Cc1cc(N2C(=O)C3CCCN3C2c2ccccc2)no1 (centres undefined) was read as A647 fluor 1e-09, TSHR agonist 10%, AID923 -0.9%, A488 autofl inactive and Resorufin fluor inactive.
COC(=O)N1CCC2(CCN(CC(C)C)CC2)CC1 was read as A647 fluor 1.6e-08, TSHR agonist 0%, AID923 -1.3%, A488 autofl inactive and Resorufin fluor inactive.
For CNC(C(=O)c1ccccc1)C(OC)c1ccccc1 (centres undefined) the results were A647 fluor 3e-09, TSHR agonist 2%, AID923 0.8%, A488 autofl inactive and Resorufin fluor inactive.
Cc1ccc2c(c1)[C@@H]1CN(C)CC[C@@H]1N2C(=O)Nc1cccc(C(F)(F)F)c1 was read as A647 fluor 2e-08, A488 autofl inactive and Resorufin fluor inactive.
Screening O=C1C(Cl)=C(Cl)C(=O)C(Cl)=C1Cl returned TSHR agonist inconclusive and AID923 1.8%.
For Oc1ccc(C2NCc3ccccc3-n3cccc32)cc1Cl (centres undefined) the results were A647 fluor 1e-08, TSHR agonist 7%, AID923 0.9%, A488 autofl inactive and Resorufin fluor inactive.
`O=C(C1CCC(=O)N1C1CCCCC1)N1CCC2(CC1)OCCO2` (centres undefined) gave A647 fluor 1e-09, TSHR agonist -4%, AID923 -0.1%, A488 autofl inactive and Resorufin fluor inactive.
`N#CC(C#N)=NNc1ccc(OC(F)(F)F)cc1` gave TSHR agonist inconclusive and AID923 -0.8%.
`COc1ccc(C2SCC(=O)Nc3c2c(=O)[nH]n3C2CCCCCC2)cc1` (centres undefined) gave A647 fluor 2.4e-08, A488 autofl inactive and Resorufin fluor inactive.
`CCOC(=O)C1=C(C)N(C)C2(C)CC1c1ccccc1O2` (centres undefined) gave A647 fluor 1.8e-08, TSHR agonist -3%, AID923 -0.4%, A488 autofl inactive and Resorufin fluor inactive.
For CC(C)(C)n1c(O)c(C=Nc2ccc3c(c2)CCC3)c(=O)[nH]c1=O the results were A647 fluor 3.6e-08, TSHR agonist inconclusive, AID923 -0.5%, A488 autofl inactive and Resorufin fluor inactive.
O=c1c2ccccc2nc(-c2ccco2)n1-c1ccccn1 was read as TSHR agonist 5% and AID923 2.7%.
For CCOP(=S)(OCC)Oc1cc(C)nc(C(C)C)n1 the results were TSHR agonist inconclusive and AID923 4.2%.
For Clc1ccccc1Cl the results were TSHR agonist inconclusive and AID923 -0.2%.
Screening CCC(=NCCCN1CCOCC1)c1c(O)n(Cc2ccccc2)c(=O)[nH]c1=O returned A647 fluor 1.6e-08, TSHR agonist -3%, AID923 -0.2%, A488 autofl inactive and Resorufin fluor inactive.
Screening Cc1c2cnn(CC(=O)N3CCC4(CC3)OCCO4)c(=O)c2c(C)n1Cc1ccccc1 returned TSHR agonist 6% and AID923 -1.9%.
`CCOC(=O)c1c(C)n(Cc2ccco2)c2ccc(O)cc12` gave A647 fluor 2.9e-08, TSHR agonist 7%, AID923 0.5%, A488 autofl inactive and Resorufin fluor inactive.
O=[N+]([O-])c1c2ccccc2cc2ccccc12 was read as TSHR agonist 5% and AID923 1.3%.
CN1[C@@H](CC(=O)c2ccccc2)CCC[C@@H]1C[C@@H](O)c1ccccc1 was read as A647 fluor 1e-09&1e-09&2.8e-08, TSHR agonist 12%, AID923 0.0%[25.7 µM], A488 autofl inactive and Resorufin fluor inactive.
`NCc1cc(=O)[nH]o1` gave A647 fluor 9.6e-09, TSHR agonist inconclusive, AID923 -1.7%&0.9%, A488 autofl inactive and Resorufin fluor inactive.
`Cc1ccc(-n2c(O)c(C=NC3CCCC3)c(=O)[nH]c2=O)c(C)c1` gave A647 fluor 2.3e-08, TSHR agonist 6%, AID923 2.9%, A488 autofl inactive and Resorufin fluor inactive.
`CCC1(CCSC(=N)N)C(=O)NC(=O)NC1=O` gave A647 fluor 1e-09, TSHR agonist 24%[11.4 µM], AID923 -0.7%[11.5 µM], A488 autofl inactive and Resorufin fluor inactive.
`CCCCn1c(O)c(C(CC)=NCCc2ccccc2)c(=O)[nH]c1=O` gave A647 fluor 2.4e-09, TSHR agonist inconclusive, AID923 0.6%, A488 autofl inactive and Resorufin fluor inactive.
For CN1C(=O)COc2c(C(=O)N[C@@H]3CN4CCC3CC4)cc(Cl)cc21 the results were TSHR agonist 5% and AID923 1.1%.
Screening O=C(C1CCN(S(=O)(=O)N2CCOCC2)CC1)N1CCC2(CC1)OCCO2 returned A647 fluor 9.7e-09, TSHR agonist 0%, AID923 1.6%, A488 autofl inactive and Resorufin fluor inactive.
Screening Cn1cc(C(=O)N2CCC3(CC2)OCCO3)c2c3ccccc3n(C)c2c1=O returned A647 fluor 2.2e-08, TSHR agonist 1%, AID923 0.5%, A488 autofl inactive and Resorufin fluor inactive.
`COc1c2ccoc2cc2oc(=O)ccc12` gave A647 fluor 4e-09, TSHR agonist inconclusive, AID923 -1.9%, A488 autofl inactive and Resorufin fluor inactive.
O=C1CSC2N1CCNC21CCCCC1 (centres undefined) was read as A647 fluor 2.8e-08, TSHR agonist -5%, AID923 -0.1%, A488 autofl inactive and Resorufin fluor inactive.

Screening data as filed in PubChem BioAssay.
